Assay outcomes as filed in PubChem.
PV pol inh – poliovirus RdRp elongation inhibitors, primary screen, biochemical, fluorescence polarization, total intensity; Genome polyprotein (Poliovirus type 1 (strain Mahoney)), P03300; poliovirus polymerase elongation; hits give low values; % elongation, % (compound at 16.7 µg/mL); 150,000 tested, 0.66% active; AID 588519, 2011; in the data active means % elongation below about 90%; further: some results filed as inactive read as strong as hits
Target sequence (P03300 1749-2209 limits assumed): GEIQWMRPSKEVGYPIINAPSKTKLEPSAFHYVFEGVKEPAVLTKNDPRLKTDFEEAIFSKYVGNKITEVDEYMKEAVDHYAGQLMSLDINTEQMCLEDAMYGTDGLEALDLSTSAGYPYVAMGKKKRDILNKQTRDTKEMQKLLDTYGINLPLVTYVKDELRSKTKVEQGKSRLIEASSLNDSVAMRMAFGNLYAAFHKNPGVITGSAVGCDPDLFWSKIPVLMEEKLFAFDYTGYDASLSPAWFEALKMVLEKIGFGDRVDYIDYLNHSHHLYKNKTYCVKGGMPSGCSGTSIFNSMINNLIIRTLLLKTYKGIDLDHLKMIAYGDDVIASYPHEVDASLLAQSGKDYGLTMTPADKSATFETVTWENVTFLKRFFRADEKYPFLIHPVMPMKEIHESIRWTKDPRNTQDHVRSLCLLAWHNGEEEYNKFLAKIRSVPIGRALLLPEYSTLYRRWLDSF
Mtb MenB inh – M. tuberculosis MenB inhibitors, primary screen, biochemical, absorbance; MenB enzyme assay, absorbance read-out; some hits fall short of the stated cut; inhibition, %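 (about 12 µg/mL by stock and volumes)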; 100,000 tested, 0.43% active; AID 540299, 2011;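 active means mean of two replicates above 30%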;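 further: 0% = no compound and 100% = wells with inactive enzyme; the first replicate is given; strong numbers were not always called active; inactives centre near -10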
Target sequence (P9WNP5 whole entry, looked up): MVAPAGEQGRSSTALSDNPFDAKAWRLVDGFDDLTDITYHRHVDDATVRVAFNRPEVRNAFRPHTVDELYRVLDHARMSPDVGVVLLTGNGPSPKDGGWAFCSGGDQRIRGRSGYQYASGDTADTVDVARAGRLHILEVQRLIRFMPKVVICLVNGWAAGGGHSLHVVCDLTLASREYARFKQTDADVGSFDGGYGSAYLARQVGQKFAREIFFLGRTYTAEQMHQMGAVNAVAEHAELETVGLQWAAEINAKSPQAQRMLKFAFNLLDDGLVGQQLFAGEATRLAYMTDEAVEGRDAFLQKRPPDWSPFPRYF
MbtI inh – MbtI salicylate synthase inhibitors, primary screen, biochemical, fluorescence intensity; purified MbtI enzyme, fluorescence intensity read-out; inhibition, %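 (about 17 µg/mL by stock and volumes)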; AID 493033, 2011; 100,000 tested, 0.89% active;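 active means above 50% in both replicates, above 80% if mildly self-fluorescent; inactive means the rest, strongly fluorescent compounds included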;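 further: 0% = mean of negative and 100% = mean of positive controls; one replicate is shown; some compounds called inactive have numbers as strong as hits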
PV pol inh intensity – recorded beside PV pol inh, whose call it bears; % elongation; measured here: total intensity read-out; formula for this scale not given here;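 total fluorescence in place of polarization; lower means less elongation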
The depositor's hits bear a star; / = not tested or not shown; & = joins results of further samples.

Letter code – A = PV pol inh; B = PV pol inh intensity; C = Mtb MenB inh; D = MbtI inh
CN(C(=O)CN1CCN(c2ccccc2O)CC1)c1ccccc1
  A = 106; B = 111; C = -14; D = -7

CCN(CC)C(=O)N1CC(C)CC(C)C1 (configuration not stated)
  A = 101; B = 105; C = -16; D = -8

CC(C)CCOc1ccccc1C(N)=O
  A = 105; B = 111; C = -13; D = /

CC(C)CNc1nc(SCC(N)=O)nc(N(C)C)n1
  A = 102; B = 102; C = -9; D = -6

CCCN(CC(=O)Nc1ccc(S(N)(=O)=O)cc1)C(C)C(=O)Nc1cccc(Cl)c1 (configuration not stated)
  A = /; B = /; C = -1; D = 0

O=C(O)CCCN1C(=O)c2ccccc2C1=O
  A = 103; B = 110; C = 4; D = /

COc1cc(Nc2ncnc3c2cnn3-c2ccc(Cl)cc2)cc(OC)c1OC
  A = 102; B = 104; C = -9; D = 53

COc1ccc(CCNC2=CC(=O)OC23CCCCC3)cc1OC
  A = 72*; B = 88*; C = 3; D = /

COc1ccc2[nH]c(C(=O)NCCN3CCCCC3)cc2c1
  A = 100; B = 99; C = -1; D = 99

Cc1[nH]c(=O)c(C#N)c(C)c1CCC(=O)N1CCN(S(=O)(=O)c2ccc(Cl)s2)CC1
  A = 108; B = 101; C = -10; D = 12

O=C(O)C1C2C=CC(O2)C1C(=O)NCc1ccccc1Br (configuration not stated)
  A = 99; B = 103; C = 3; D = -7

CC(Oc1coc(CN2CCN(Cc3ccccc3)CC2)cc1=O)c1ccccc1 (configuration not stated)
  A = 104; B = 105; C = -3; D = 8

COCCOC(=O)C1=C(C)NC(SC)=C(C#N)C1c1ccccc1Cl (configuration not stated)
  A = 103; B = 104; C = 5; D = 2

CN1C/C(=C\c2ccc(F)c(F)c2)C(=O)/C(=C/c2ccc(F)c(F)c2)C1
  A = 105; B = 100; C = 2; D = 19

Cc1ccc(NC(=O)Cn2nnc(C(=O)Nc3ccc(Br)cc3)c2N)cc1F
  A = 103; B = 103; C = -52; D = -3

Cc1cc(Oc2ccccc2)nc(Oc2ccc(OCCOc3ccc(Br)cc3)nn2)n1
  A = 102; B = 107; C = 3; D = -3

CC1=C2C(=NCCN1)C(=O)N(c1ccccc1)C2c1cccnc1 (configuration not stated)
  A = 96; B = 102; C = -9; D = -4

CCc1nc2ccc(C(=O)NCCc3ccco3)cc2nc1CC
  A = 102; B = 102; C = -12; D = -31

O=C(NC1(C(F)(F)F)OCCO1)c1ccc(F)cc1
  A = 99; B = 102; C = -22; D = 8

CN1CCN(S(=O)(=O)c2ccc(Cc3ccc(S(=O)(=O)N4CCN(C)CC4)cc3)cc2)CC1
  A = 100; B = 101; C = -5; D = -25

C=C(C)Cn1c(=O)c2c(nc3n2CC(C)CN3Cc2ccccc2)n(C)c1=O (configuration not stated)
  A = 102; B = 104; C = -42; D = 10

OCC(O)C(O)C(O)C(O)c1nc2ccccc2[nH]1 (configuration not stated)
  A = 62*; B = 64*; C = -16; D = -12

CCOC(=O)/C(C#N)=C/c1ccsc1
  A = 102; B = 105; C = -5; D = 2

CCNCC1(c2ccc(OC)c(OC)c2)CCCC1
  A = 102; B = 102; C = -21; D = -14

Cc1ccc(C2=NNC(c3cccnc3)=Nc3ccc(F)cc32)o1
  A = 102; B = 101; C = -6; D = 11

(next part)
Letter code – A = PV pol inh; B = PV pol inh intensity; C = Mtb MenB inh; D = MbtI inh
CN(CC(=O)N=c1sccn1C)S(=O)(=O)c1ccc(Cl)cc1
  A = 104; B = 108; C = 4; D = -2

O=c1cc(-c2cccs2)nc(-c2cccc(I)c2)o1
  A = 99; B = 101; C = 6; D = 1

CCC(C)n1c(SCC(=O)OC)nnc1-c1cccc(S(=O)(=O)N2CCOCC2)c1 (configuration not stated)
  A = 110; B = 106; C = -16; D = -1

Cc1ccc(C(=O)Oc2ccc(/C=N/c3cccs3)cc2)cc1
  A = 104; B = 107; C = -10; D = /

COC(=O)c1cc(OC)c(OC)cc1NS(=O)(=O)c1ccsc1C(=O)OC
  A = 97; B = 97; C = 4; D = -1

CCc1n[nH]c(=S)c2cc3sccc3n12
  A = 100; B = 103; C = -12; D = 8

O=C(CN1CCC(c2nc3ccccc3s2)CC1)N1CCCCC1
  A = 100; B = 100; C = 0; D = -1

Nc1nc2sc3c(c2cc1C(=O)N1CCOCC1)CCCC3
  A = 102; B = 99; C = -26; D = -141

CCOC(=O)N1CCN(c2nc3c(c(=O)n(C)c(=O)n3C)n2CCSc2nnc(C)s2)CC1
  A = 101; B = 109; C = -14; D = -8

Cc1nc2cc(NC(=O)NC3=NCCS3)ccc2n1C
  A = 101; B = 104; C = 8; D = -24

O=C1c2ccccc2C(O)(Cc2ccccc2)N1C1CCCCC1 (configuration not stated)
  A = 103; B = 104; C = -1; D = -4

CC(=O)N1c2ccc(S(=O)(=O)N3CCCCC3)cc2CC1C (configuration not stated)
  A = 104; B = 106; C = -12; D = -2

COc1ccc(-n2c(SCC(=O)NC(C)(C)C)nc3ccccc32)cc1
  A = 102; B = 97; C = /; D = 0

CC(Sc1nc2sc3c(c2c(=O)n1Cc1ccco1)CCC3)c1nc2ccccc2c(=O)[nH]1 (configuration not stated)
  A = 108; B = 111; C = -18; D = 47

CC(=O)NS(=O)(=O)c1ccc(NC(=O)C(C)NS(=O)(=O)/C=C/c2ccccc2)cc1 (configuration not stated)
  A = 99; B = 104; C = -12; D = 4

CCC1CCCCN1C(=O)CSc1nnc(-c2cccnc2)n1-c1ccc(OC)cc1 (configuration not stated)
  A = 105; B = 101; C = 24; D = 0

COc1cc(/C=N/NC(N)=O)cc2sc(=O)oc12
  A = 99; B = 101; C = -14; D = 81*

CCOC(=O)C1(C)NC(c2ccc(F)cc2)C2C(=O)N(CC)C(=O)C21 (configuration not stated)
  A = 103; B = 104; C = 3; D = -8

N#CC1=C(N)N2CCCSC2=C(C#N)C1c1ccccc1 (configuration not stated)
  A = 102; B = 102; C = -10; D = 5

Nc1nnc(SCC(=O)N2CCCCCC2)s1
  A = 106; B = 109; C = -10; D = -11

Cc1ccc2c(COC(=O)Cn3c(C)csc3=O)cc(=O)oc2c1C
  A = 106; B = 113; C = -8; D = 7

CCN(CC)N=Nc1ccc(S(=O)(=O)N2CCSC2C(=O)O)cc1 (configuration not stated)
  A = 103; B = 101; C = -38; D = 8

COc1cc(C)c(C(=O)CCC(=O)O)cc1C
  A = 104; B = 105; C = -16; D = 5

CCCCc1nc2sc3c(=O)n(N)cnc3c2c2c1CCC2
  A = 107; B = 100; C = -34; D = -17

CC(COc1ccccc1)N(CCCl)Cc1ccccc1 (configuration not stated)
  A = 104&96&100; B = 99&98&98; C = 9&-10; D = 3&8

5 compounds drawn at random from those above, as already listed:
Letter code – A = PV pol inh; B = PV pol inh intensity; C = Mtb MenB inh; D = MbtI inh
CN(C(=O)CN1CCN(c2ccccc2O)CC1)c1ccccc1
  A = 106; B = 111; C = -14; D = -7

CCN(CC)N=Nc1ccc(S(=O)(=O)N2CCSC2C(=O)O)cc1 (configuration not stated)
  A = 103; B = 101; C = -38; D = 8

COc1ccc(-n2c(SCC(=O)NC(C)(C)C)nc3ccccc32)cc1
  A = 102; B = 97; C = /; D = 0

CC(Oc1coc(CN2CCN(Cc3ccccc3)CC2)cc1=O)c1ccccc1 (configuration not stated)
  A = 104; B = 105; C = -3; D = 8

OCC(O)C(O)C(O)C(O)c1nc2ccccc2[nH]1 (configuration not stated)
  A = 62*; B = 64*; C = -16; D = -12

By substructure, the entries above containing an aryl methoxy group
Letter code – A = PV pol inh; B = PV pol inh intensity; C = Mtb MenB inh; D = MbtI inh
COc1cc(Nc2ncnc3c2cnn3-c2ccc(Cl)cc2)cc(OC)c1OC
  A = 102; B = 104; C = -9; D = 53

COc1ccc(CCNC2=CC(=O)OC23CCCCC3)cc1OC
  A = 72*; B = 88*; C = 3; D = /

COc1ccc2[nH]c(C(=O)NCCN3CCCCC3)cc2c1
  A = 100; B = 99; C = -1; D = 99

CCNCC1(c2ccc(OC)c(OC)c2)CCCC1
  A = 102; B = 102; C = -21; D = -14

COC(=O)c1cc(OC)c(OC)cc1NS(=O)(=O)c1ccsc1C(=O)OC
  A = 97; B = 97; C = 4; D = -1

COc1ccc(-n2c(SCC(=O)NC(C)(C)C)nc3ccccc32)cc1
  A = 102; B = 97; C = /; D = 0

CCC1CCCCN1C(=O)CSc1nnc(-c2cccnc2)n1-c1ccc(OC)cc1 (configuration not stated)
  A = 105; B = 101; C = 24; D = 0

COc1cc(/C=N/NC(N)=O)cc2sc(=O)oc12
  A = 99; B = 101; C = -14; D = 81*

COc1cc(C)c(C(=O)CCC(=O)O)cc1C
  A = 104; B = 105; C = -16; D = 5

(next part)
Letter code – A = PV pol inh; B = PV pol inh intensity; C = Mtb MenB inh; D = MbtI inh
Cc1ccnn1CCC(=O)O
  A = 105; B = 99; C = -32; D = -5

CC(C)(C)c1csc(Cc2ccc(-c3csnn3)cc2)n1
  A = 104; B = 113; C = -2; D = -2

CC(C)=CC(=O)N1CCN(c2cccc(C(F)(F)F)c2)CC1
  A = 105; B = 109; C = -10; D = -3

COc1ccc2nc(Cl)c(/C=N/NC3CCS(=O)(=O)C3)cc2c1 (configuration not stated)
  A = 102; B = 114; C = -6; D = 8

COc1ccc2[nH]cc(CCN3C(=O)c4ccccc4C3=O)c2c1
  A = 101; B = 107; C = 5; D = -4

O=C(NC(=S)Nc1nn[nH]n1)C1CCCCC1
  A = /; B = /; C = -53; D = 14

O=C(CNc1ccc(Cl)cc1)NCC1CCCO1 (configuration not stated)
  A = 103; B = 107; C = /; D = -6

CC(CCc1ccccc1)NC(=O)COc1ncnc2ccccc12 (configuration not stated)
  A = 103; B = 110; C = /; D = 0

NNc1nc2sc3c(c2c(=O)[nH]1)CCCC3
  A = 102; B = 103; C = -14; D = 6

Cc1ccc(-c2nnc(SCc3ccccc3F)o2)cc1
  A = 102; B = 102; C = -1; D = 7

COc1ccc2[nH]c3c(=O)n(CCCCC(=O)N4CCN(c5ncccn5)CC4)c(=S)[nH]c3c2c1
  A = 100; B = 104; C = 17; D = 2

CCCNC(=O)c1cc(=O)n(Cc2ccc(Cl)cc2)c2ccccc12
  A = 103; B = 106; C = -5; D = 14

CN(C)C(=O)CSc1nc2cc(S(=O)(=O)N3CCOCC3)ccc2o1
  A = 81*; B = 85*; C = -11; D = 87*

Cn1c(=O)c2c(SCCN3CCCC3)nc(C3CCCC3)nc2n(C)c1=O
  A = 103; B = 104; C = -7; D = 5

CC(C)=CCOc1cc(C)cc2oc(=O)cc(-c3ccccc3)c12
  A = 92; B = 90; C = -14; D = -8

O=C1CC(Sc2ccc(Cl)cc2)C(=O)N1c1ccc(Br)cc1 (configuration not stated)
  A = 107; B = 114; C = 1; D = /

Cc1ccc(NC(=O)CC(=O)O)cc1
  A = 105; B = 103; C = -6; D = -1

N#Cc1ccc(OCC(=O)NC2CCCCCC2)cc1
  A = 100; B = 103; C = /; D = -3

Cc1ccc(-n2c(N)cc(=O)[nH]c2=O)cc1
  A = 100; B = 107; C = -14; D = 2

O=C(O)/C=C/c1ccc(-c2ccccc2)o1
  A = 100; B = 104; C = 3; D = -109

Cc1ccc(OCc2nc(SCC(=O)NC(=O)NC3CCCC3)n[nH]2)cc1
  A = 98; B = 92; C = -24; D = -8

O=C(CSc1nc2ccccc2o1)c1ccc2c(c1)OCCO2
  A = 87; B = 123; C = -39; D = 0

CC(=O)N1CCN(CCN2C(C)=CC(=C(C#N)C#N)C=C2C)CC1
  A = 104; B = 106; C = -4; D = 2

O=C(CSc1ccccc1)NCC1CCCO1 (configuration not stated)
  A = 109; B = 114; C = -19; D = 27

Cc1ccc(S(=O)(=O)CNC=O)cc1
  A = 99; B = 102; C = -12; D = -4

(cont.)
Letter code – A = PV pol inh; B = PV pol inh intensity; C = Mtb MenB inh; D = MbtI inh
COC(=O)c1ccc(COC(=O)c2cccc(S(=O)(=O)N3CCc4ccccc43)c2)o1
  A = 108; B = 97; C = -38; D = -15

CC(CNC1CCCCC1)OC(=O)c1ccccc1 (configuration not stated)
  A = 102; B = 102; C = -2; D = -39

Nc1nncn1C(=O)c1ccccc1F
  A = 103; B = 93; C = -1; D = /

O=C(COc1cccc(F)c1)OCC(=O)c1cccc(Cl)c1
  A = 103; B = 107; C = /; D = -9

C(=NCC1CCCO1)c1cccnc1 (configuration not stated)
  A = 102; B = 104; C = /; D = -7

N#CC(C#N)=C1C=C2C=C(N3CCc4ccccc4C3)CCC2CC1 (configuration not stated)
  A = 45; B = 246; C = -2; D = 13

O=c1cc(/C=C/c2ccccc2)oc2ccccc12
  A = 102; B = 106; C = -16; D = 41

O=S(=O)(c1ccc(-c2ccccn2)s1)N1CCOCC1
  A = 103; B = 95; C = -16; D = 24

S=C(NC1CCCCC1)Sc1ccc(Cl)cc1
  A = 94; B = 97; C = -16; D = 56*

CN(N)c1nc(N2CCCC2)nc(N2CCCC2)n1
  A = 101; B = 103; C = 1; D = -2

CC(=O)Nc1ncc2c(n1)CC(c1ccc(C)cc1)CC2=O (configuration not stated)
  A = 103; B = 104; C = 5; D = 6

Cc1cc(C)c2c(c1)c1n[nH]c(=S)nc1n2C
  A = 98; B = 98; C = -7; D = 15

CC(C)OC(=O)CSc1nc2ccccc2[nH]1
  A = 98; B = 96; C = 1; D = 11

CCc1ccc(NC(=O)CN2C(=O)c3ccccc3S2(=O)=O)cc1
  A = 102; B = 101; C = 11; D = 0

COC(=O)Cc1ccc2sc(-c3ccccc3)nc2c1
  A = 102; B = 106; C = /; D = -10
